# Assay outcomes (PubChem)
# Lassa entry inh: inhibitors of Lassa virus binding or cell entry. Lassa virus pseudotype entry inhibition, cell reporter; control for the full effect not named in the record. Potency, µM (doses to about 37.9 µM), without a hit: top-dose activity change, negative = inhibition, most hits filed as inhibitors. actives 1.2% (n = 300,000). AID 540256; active means well fitted inhibition curve with a large enough effect; inconclusive means small, poorly fitted or top-dose-only effect, or effect the other way; inactive means flat fitted curve, though single readings scatter; tested in HEK293 cells; further: on the % scale 0 is the no-effect control and ±100 the full control effect; nearly all actives have a fitted effect of over 50% in size; luciferase read-out
# NS1 function inh: inhibitors of influenza NS1 protein function; S. cerevisiae slowed by influenza A NS1, growth recovery by OD600; Potency, µM (highest dose often 46.1 µM), for the others: at the top dose activity, positive = more growth; actives 0.4% (n = 270,000); active means well fitted rising curve with a large enough effect; inconclusive means small, poorly fitted or top-dose-only effect; inactive means no such curve, though single readings can be large or run the other way; further: nearly all actives have a fitted effect of over 50% in size
#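 Compounds were scored for reversing the slow growth caused by influenza A NS1 in S. cerevisiae, measured by optical density at 600 nm. Assay medium contained 2% galactose at pH 6.0; NS1-free yeast of the same strain were the positive control.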
# RE007 growth inh: less growth of the S. pombe RE007 Vpr strain; S. pombe RE007 Vpr strain, BacTiter-Glo ATP luminescence, 24 h; control for the full effect not named in the record; Potency, µM (series often up to 92.2 µM), without a hit: at the top dose activity change, negative = less growth; actives 0.21% (n = 360,000); active = well fitted falling curve with a large enough effect; inconclusive = small, poorly fitted or top-dose-only effect; inactive = no such curve, though single readings can be large or run the other way;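 further: on the % scale 0 is the no-effect control and ±100 the full control effect; nearly all actives have a fitted effect of over 50% in size; the assay follows cell death caused by Vpr and the record does not say whether a fall means rescue or toxicity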
#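 Fission yeast strain RE007, carrying one chromosomally integrated HIV-1 vpr copy, was seeded at OD 0.01 in PMG+AL medium with 23 nL pinned compound. After 24 h at 30 °C and 99% humidity, viability was read by BacTiter-Glo luminescence.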
# Cruzain noTriton: cruzain (T. cruzi) inhibition without detergent. P25779. purified cruzain, Z-FR-AMC fluorescence, no detergent. Potency, µM, for inactives: max response, negative = inhibition, usual class: inhibitors. actives 2.3% (n = 200,000). AID 1476;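 further: plate controls were enzyme without inhibitor for no effect and buffer without enzyme for full effect; nearly all actives have a fitted effect of over 40% in size; top concentration of the series not given in the record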
# Target sequence (P25779 123-467 limits assumed): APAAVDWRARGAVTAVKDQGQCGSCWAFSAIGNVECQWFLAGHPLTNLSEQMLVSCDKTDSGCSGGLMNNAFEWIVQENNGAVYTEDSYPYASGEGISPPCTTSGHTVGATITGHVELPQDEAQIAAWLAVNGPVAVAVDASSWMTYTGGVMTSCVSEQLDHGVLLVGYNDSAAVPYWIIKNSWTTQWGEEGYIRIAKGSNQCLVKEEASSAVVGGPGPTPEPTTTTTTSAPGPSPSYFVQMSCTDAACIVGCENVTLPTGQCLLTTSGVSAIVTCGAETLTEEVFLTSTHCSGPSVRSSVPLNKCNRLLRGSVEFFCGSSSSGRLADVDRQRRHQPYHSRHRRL
#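 Detergent-free condition (0.00005% Triton X-100) in acetate buffer pH 5.5 with DTT. 1.5 nM enzyme and compound were pre-mixed 15 min, then 2 uM Z-FR-AMC substrate added; reaction progress from fluorescence change between first and third reads (60 s).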
# Cruzain Triton: blocks cruzain activity in presence of Triton detergent. P25779. actives 0.43% (n = 200,000). purified cruzain, Z-FR-AMC fluorescence, 0.01% Triton. Potency, µM, for inactives: max response, negative = inhibition, usual class: inhibitors;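 further: plate controls were neutral wells for no effect and buffer without enzyme for full effect; nearly all actives have a fitted effect of over 40% in size; top concentration of the series not given in the record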
#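 Purified cruzain (1.5 nM final) was preincubated with compounds for 15 min at room temperature in 100 mM sodium acetate pH 5.5, 5 mM DTT, 0.01% Triton X-100. Reaction started with 2 uM Z-FR-AMC; AMC fluorescence change over 60 s gave activity.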
# 2A StopGo: lowers the luciferase signal of an FMDV 2A StopGo reporter; human cells with a luciferase reporter of 2A StopGo recoding; control for the full effect not named in the record; actives 1.2% (n = 410,000); Potency, µM (titrated, usually from 57.9 µM), inactives show top-dose signal change, negative = less light; AID 1159524; active = well fitted falling curve with a large enough effect; inconclusive = small, poorly fitted or top-dose-only effect; inactive = no such curve, though single readings can be large or run the other way; tested in HEK293T cells; further: on the % scale 0 is the no-effect control and ±100 the full control effect; nearly all actives have a fitted effect of over 45% in size; luciferase light after 4 h
# MARV entry inh: blocks Marburg virus binding to or entry into cells. Marburg virus pseudotyped entry inhibition, cell reporter; control for the full effect not named in the record; about a third of the inactives were read at about 46 µM. Potency, µM (highest dose often 37.8 µM), for inactives: at the highest dose activity change, negative = inhibition, usual class: inhibitors. actives 1.8% (n = 300,000). AID 540276; active = well fitted inhibition curve with a large enough effect; inconclusive = small, poorly fitted or top-dose-only effect, or effect the other way; inactive = flat fitted curve, though single readings scatter; tested in HEK293 cells; about a fifth of its hits are not listed in these tables; further: on the % scale 0 is the no-effect control and ±100 the full control effect; luciferase read-out
# SARS PLP yeast: blocks SARS-CoV papain-like protease in a yeast assay | S. cerevisiae expressing SARS-CoV PLpro, growth rescue; control for the full effect not named in the record | Potency, µM (titrated, usually from 32.9 µM), for inactives: top-dose activity, positive = growth rescue | actives 0.19% (n = 330,000) | AID 485353; active means well fitted rising curve with a large enough effect; inconclusive means small, poorly fitted or top-dose-only effect; inactive means no such curve, though single readings can be large or run the other way; further: 0% is about no effect; nearly all actives have a fitted effect of over 55% in size; growth read by luminescence after 48 h
# * = called active by the depositor; ? = inconclusive; . = not tested or not shown; [ ] = another dose, or the depositor's remark. Unless noted, the call rests on the fitted dose curve; in most records, active means well fitted curve in the direction sought with a large enough effect; inconclusive means small, poorly fitted or top-dose-only effect, or another doubt; inactive means no such curve, though single readings can be large; an effect the other way counts as inactive or inconclusive. Potency means the concentration at half of the fitted maximal effect. Outcome played no part in choosing rows; any-hit rate near 4.7%.
SMILES,Lassa entry inh,NS1 function inh,RE007 growth inh,Cruzain noTriton,Cruzain Triton,2A StopGo,MARV entry inh,SARS PLP yeast
Cc1ccccc1C(=O)N[C@H](C(=O)OCC(=O)c1ccc[nH]1)C(C)C,.,-27%,-8%,-16%,-12%,2%,.,-9%
COc1ccc(NC(=O)CN(C)C(=O)C2CC(=O)N(CCc3ccc(OC)c(OC)c3)C2)cc1 (stereo not given),-1%,.,7%,.,.,0%,3%[46.1 µM],.
O=C(O)C1CC=CCC1C(=O)NCCc1csc(-c2ccccc2)n1 (stereo not given),17%,-15%,12%,-2%,-1.4%,33%[activator],43%,3%
Cc1cc([N+](=O)[O-])nn1Cc1c(F)c(F)c(F)c(F)c1F,-8%,?,-8%,-7%,1.2%,-12%,7%,1%
Cc1cccc(C(=O)NCC(=O)OCC(=O)NC2CCCCC2)c1,?,.,0%,.,.,7%,0%[46.1 µM],3%
COCCNC(=O)CSc1ccc(-c2nc3ccccc3[nH]2)cn1,.,?,2%,.,.,10%,.,-2%
CCOc1cccc(-c2c(C(=O)N/N=C/c3ccc(C)s3)nnn2-c2nonc2N)c1,-29%[46.1 µM],18%,0%,.,.,16%,16%[46.1 µM],28%
Nn1c(SCC(=O)Nc2ccccc2F)nc2ccccc2c1=O,-2%,?,1%,-5%,-1.6%,?,-6%,-4%
CC(=O)NC(CCS(C)(=O)=O)C(=O)Nc1ccccc1Cl (stereo not given),14%,0%,-3%,0%,3.6%,-2%,13%[46.1 µM],7%
CC1CCC(C(C)C)C(OCC(O)CN2CCCC(C)C2)C1 (stereo not given),5.6µM*,.,-14%,.,.,?,?,0%
CCCCN(C)C(=O)Cn1ncc2c3ccccc3n(CCC)c2c1=O,9%,4%,4%,.,.,-15%,-27%,2%
CCOc1ccc(NC(=O)N(C2CCCCC2)C(C)c2cccnc2)cc1 (stereo not given),.,14%,-9%,-7%,6.8%,2%,.,1%
Cc1cc(NC(=O)CCc2ccc(S(=O)(=O)N3CCOCC3)cc2)n(-c2ccccc2)n1,-16%,-11%,2%,4%,0.2%,?,?,3%
COc1cc(-c2nc3nc(C)cc(C)n3c2Nc2ccc(Cl)cc2)ccc1O,?,.,.,?,-8.9%,-6%,-8%[46.1 µM],.
COc1cccc(OCCCOc2ccc([N+](=O)[O-])cc2Cl)c1,14%,-2%,4%,1%,-11%,-4%,1%,-21%
O=[N+]([O-])c1cccc(-c2nc3ccc([N+](=O)[O-])cc3[nH]2)c1,-9%,.,-6%,.,.,-6%,?,-3%
Cc1cc(-c2ccc(S(=O)(=O)N(C)c3ccc(C)c(C)c3)s2)on1,.,-13%,-4%,.,.,?,.,1%
Cc1c(CCC(=O)O)c(=O)oc2cc3occ(C(C)(C)C)c3cc12,?,-30%,-25%,.,.,-3%,0%,1%
CCS(=O)(=O)c1ccc(O)c(NC(=O)CC2(CC(=O)O)CCCC2)c1,-7%,-1%,-3%,.,.,-2%,-3%,1%
COc1ccc(-c2cc(C(F)(F)F)n3nc(C(=O)Nc4cccc(C(F)(F)F)c4)c(Br)c3n2)cc1,25%[46.1 µM],.,.,-2%,-0.8%,5%,.,.
O=C(CN1CCN(Cc2ccccc2Cl)C1=O)NCC1CCCO1 (stereo not given),.,0%,11%,2%,0.1%,-9%,.,-4%
CC(=O)N1c2ccc(S(=O)(=O)NCCC(=O)NC3CCCCCC3)cc2CC1C (stereo not given),.,-3%,4%,.,.,-9%,.,3%
COC(=O)c1cc(NC(=O)c2cccc(F)c2)cc(C(=O)OC)c1,-18%[46.1 µM],.,3%,.,.,-13%,7%[46.1 µM],0%
O=c1c2ccccc2nc(/C=C/c2cccc3ccccc23)n1-c1ccc(Cl)cc1,-3%[46.1 µM],.,.,?,0.0%,-24%,.,.
Cc1ccc(S(=O)(=O)CCC(=O)OCn2nnc3ccccc3c2=O)cc1,29%,-4%,5%,.,.,-11%,1%,0%
SMILES,Lassa entry inh,NS1 function inh,RE007 growth inh,Cruzain noTriton,Cruzain Triton,2A StopGo,MARV entry inh,SARS PLP yeast
O=C(CCn1c(=O)c2sccc2n(Cc2ccc(F)cc2)c1=O)NCc1ccc2c(c1)OCO2,-2%[46.1 µM],.,.,3%,-0.9%,0%,19%[46.1 µM],.
Cc1cc(-c2ccccc2)nc2[n+]1CCN2C,-20%,-7%,-5%,-9%,-1.0%,.,-28%,2%
CC1=NN(c2ccccc2)C(=O)/C1=C\c1ccc(Br)s1,-4%,-11%,13%,?,-3.4%,8%,4%,-16%
CCOc1ccc(NC(=O)CSc2nc(=O)n(CCN3CCOCC3)c3c2CCCC3)cc1,7%,.,-12%,.,.,-12%,-25%,4%
COc1ccc2nc(SCC(=O)N3CC(=O)Nc4ccccc43)c(C#N)cc2c1,?,5%,5%,?,-3.5%,-20%,?,?
COc1ccc(-c2nnc(NC(=O)CS(=O)(=O)c3ccc(Cl)cc3)o2)c(OC)c1,.,7%,-1%,.,.,18%,.,2%
COCCn1c(SCC(=O)Nc2ccc(F)cc2)nc2c(oc3ccccc32)c1=O,-22%[46.1 µM],.,9%,.,.,-4%,27%[46.1 µM],0%
CCN(CC)C(=O)CSc1nc2ccccc2c(=O)n1OC,2%,1%,-4%,3%,0.3%,-3%,-4%,-2%
O=C1NC(=O)/C(=C/c2ccccn2)S1,12%,-72%,-10%,.,.,32%[activator],3%[46.1 µM],2%
Cc1cccnc1N1C(=O)c2ccc(C(=O)O)cc2C1=O,.,1%,7%,.,.,-21%,.,0%
CN1CCN(C(=S)SCc2nc(N)nc(Nc3ccc(F)cc3)n2)CC1,.,4%,8%,.,.,41%[activator],.,1%
COc1ccccc1C1CCN(Cc2cccc([N+](=O)[O-])c2)CC1,.,-3%,2%,.,.,-7%,.,0%
COCc1ccc(CN2CCCC(CO)(Cc3ccccc3C)C2)o1 (stereo not given),-26%,6%,6%,.,.,-9%,4%[14.2 µM],-1%
O=C(CSc1nc2ccccc2o1)Nc1ccc(N2CCOCC2)cc1,62%[14.3 µM],-5%,17%,-17%,7.7%,20%,24%,-6%
O=C(Cn1cnc2nc3c(cc2c1=O)CCCC3)N1CCN(c2cccc(C(F)(F)F)c2)CC1,11%[46.1 µM],.,.,-13%,-1.2%,-22%,.,.
CC(=O)c1ccc(NC(=O)C2CCCN(c3ncnc4c3nc3n4CCCCC3)C2)cc1 (stereo not given),?,-2%,8%,.,.,?,1%[46.1 µM],-4%
Cc1nc2ccccc2n1CCc1ccccc1,.,2%,0%,.,.,3%,4%[46.1 µM],1%
CCCn1nc(C(=O)NCc2ccccn2)c2ccccc2c1=O,0%,-6%,6%,-2%,-3.2%,-2%,15%,8%
COc1ccc(NC(=O)COC(=O)c2ccc(Cl)c(S(N)(=O)=O)c2)c([N+](=O)[O-])c1,?,10%,-1%,.,.,-16%,-2%,1%
Clc1ccc2[nH]c3c(N4CCC5(CC4)OCCO5)ncnc3c2c1,10µM*,-47%,-9%,3%,-14%,?,10µM*,-1%
Cc1cccc(NC(=O)CSC2=Nc3ccccc3C3=NC(CC(=O)NCc4cccs4)C(=O)N23)c1 (stereo not given),0%[46.1 µM],.,.,2%,-8.4%,-15%,-2%[46.1 µM],.
O=C(Nc1cccc(C(F)(F)F)c1)c1cc(-c2ccco2)on1,1%[46.1 µM],-25%,1%,.,.,3%,2%[46.1 µM],-13%
O=C(NCCc1cccs1)c1cccs1,12%,.,-6%,.,.,62%[activator],-17%[46.1 µM],0%
CCOC(=O)c1c(SCC(=O)Nc2cc(Cl)cc(Cl)c2)nc(=O)[nH]c1C,-27%[46.1 µM],.,.,-14%,0.9%,-12%,.,.
O=C(c1ccc(-c2ccccc2)cc1)N1CCN(c2nc3ccccc3o2)CC1,.,-5%,6%,.,.,5%,.,1%
SMILES,Lassa entry inh,NS1 function inh,RE007 growth inh,Cruzain noTriton,Cruzain Triton,2A StopGo,MARV entry inh,SARS PLP yeast
COc1cc2c(cc1OC)n(CC(=O)Nc1ccccc1)c(=O)n1nc(-c3ccccc3)nc21,-5%[46.1 µM],.,.,2%,-2.3%,-7%,18%[46.1 µM],.
C[n+]1cnc(-c2ccccc2)cc1-c1ccccc1,?,-2%,-8%,-5%,-4.5%,-13%,-5%,-4%
CCCS(=O)(=O)N1CCCC(C(=O)NCCOC)C1 (stereo not given),23%[46.1 µM],.,.,-6%,0.8%,-6%,.,.
COC(=O)c1ccccc1OCCCOc1ccc(C=O)cc1OC,2%,-43%,-22%,15%,-3.5%,11%,26%,-5%
COc1ccc(OC)c(C2C(C#N)=C(N)Oc3cc(C)n(Cc4ccccn4)c(=O)c32)c1 (stereo not given),4%,12%,-2%,7%,7.8%,7%,-1%,-4%
CCOC(=O)CC1(NC(=O)c2cc(COc3cncc(Cl)c3)on2)CCCCC1,-27%[46.1 µM],-17%,2%,.,.,-25%,?,-1%
Cc1ccc(-c2cc(C(=O)OCC(=O)c3ccccc3)c3cccc(Cl)c3n2)cc1,-8%[46.1 µM],.,.,-25%,-1.0%,?,-1%[46.1 µM],.
COCCN1CCN(C(=O)C2CCC(=O)N(CCc3ccc(Cl)cc3)C2)CC1 (stereo not given),7%,-3%,2%,.,.,-23%,4%,-4%
CC(CNC(=O)CCCn1ncn2c(cc3occc32)c1=O)c1ccccc1 (stereo not given),14%[46.1 µM],5%,9%,.,.,1%,18%[46.1 µM],-1%
CC(Sc1nnc2c(n1)[nH]c1ccccc12)C(=O)N(C)C1CCCCC1 (stereo not given),?,-13%,4%,.,.,?,?,-9%
O=C(c1ccc(Cl)cc1)c1c[nH]c(C(=O)NNc2ccccc2)c1,14µM*,1%,149%,.,.,-13%,?,0%
CC1(C(=O)NC2CCCCC2)CCC(=O)N1Cc1cccs1 (stereo not given),.,-5%,5%,13%,4.7%,-15%,.,11%
